Source: PubChem BioAssay
12-LOX inh: blocks human arachidonate 12S-lipoxygenase. purified 12hLO, xylenol orange hydroperoxide absorbance. actives 1.1% (n = 580,000). Potency, µM (titrated, usually from 108 µM), for inactives: at the top dose activity change, negative = inhibition, most hits filed as inhibitors. P18054; also: % is scaled to controls: 0 for no effect and ±100 for the full control effect
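Purified human 12hLO at 150 nM in 25 mM Hepes, 0.01% Triton X-100, pH 7.0, preincubated 15 min at room temperature with compound. Reaction started with 40 uM arachidonic acid, 30 min at room temperature. Hydroperoxide measured by Fe-xylenol orange, 573/405 nm absorbance ratio.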
rTrxR1 inhibitor: inhibitors of rat thioredoxin reductase 1; actives 1% (n = 390,000); Potency, µM (titrated, usually from 114 µM), inactives show top-dose activity change, negative = inhibition, most hits filed as inhibitors; recombinant rTrxR1, NADPH fluorescence consumption, selenite substrate; also: % is scaled to controls: 0 for no effect and ±100 for the full control effect; nearly all actives have a fitted effect of over 65% in size
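Rat TrxR1 (90 nM in the dispensed reagent) was pre-reduced with 400 uM NADPH for 5 min at room temperature, then incubated with compound for 15 min. After 400 uM selenite was added, NADPH fluorescence (Ex 340/Em 450 nm) was followed for 8 min.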
PGK inhibitor: blocks T. brucei phosphoglycerate kinase | P07378 | PGK/GAPDH coupled, Kinase-Glo luminescence, 60 min | Potency, µM (top dose mostly 57.5 µM), without a hit: at the highest dose activity change, negative = inhibition, usual class: inhibitors | actives 0.043% (n = 380,000) | AID 602233; also: % is scaled to controls: 0 for no effect and ±100 for the full control effect; nearly all actives have a fitted effect of over 60% in size
Target sequence (P07378 whole entry, looked up): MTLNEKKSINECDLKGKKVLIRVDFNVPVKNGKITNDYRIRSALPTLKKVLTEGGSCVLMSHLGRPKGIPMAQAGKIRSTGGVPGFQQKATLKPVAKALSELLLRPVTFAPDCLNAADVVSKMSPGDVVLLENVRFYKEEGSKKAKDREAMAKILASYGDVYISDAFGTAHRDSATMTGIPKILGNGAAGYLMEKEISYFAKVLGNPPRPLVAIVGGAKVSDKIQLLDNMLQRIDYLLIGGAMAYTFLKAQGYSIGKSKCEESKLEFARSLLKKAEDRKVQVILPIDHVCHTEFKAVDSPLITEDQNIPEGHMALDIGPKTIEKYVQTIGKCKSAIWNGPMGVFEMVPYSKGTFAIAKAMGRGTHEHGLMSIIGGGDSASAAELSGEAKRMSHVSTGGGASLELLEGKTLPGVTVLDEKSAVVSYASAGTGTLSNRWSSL
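Recombinant glycosomal PGK reaction used 1,3-bisphosphoglycerate generated in-well by GAPDH (100nM final) in 100mM TEA pH 7.6, 5mM MgCl2, 0.01% Tween-20. After 60 minutes at room temperature, ATP was read by Kinase-Glo Plus luminescence end-point.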
Pin1 inh: blocks the human prolyl isomerase Pin1; Q13526; Pin1 FP peptide displacement, HiFluor488, 10 min; Potency, µM (doses to about 115 µM), without a hit: top-dose activity, negative = inhibition, most hits filed as inhibitors; actives 0.009% (n = 390,000); AID 504891; active = well fitted inhibition curve with a large enough effect in the polarisation, with a control signal flat, not every such curve was filed as active; inconclusive = small, poorly fitted or top-dose-only effect, or effect the other way, or a change in a side signal; inactive = no such curve, though single readings can be large or run the other way; the % refers to the polarisation; also: % is scaled to controls: 0 for no effect and ±100 for the full control effect
Target sequence (Q13526 whole entry, looked up): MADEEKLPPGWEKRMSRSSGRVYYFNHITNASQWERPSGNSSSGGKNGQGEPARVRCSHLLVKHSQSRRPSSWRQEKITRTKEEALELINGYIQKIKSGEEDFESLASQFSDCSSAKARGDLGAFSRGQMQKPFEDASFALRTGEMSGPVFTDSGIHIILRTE
RGS4 inhibitor: blocks human RGS4-accelerated GTP hydrolysis | Potency, µM (top dose mostly 114 µM), without a hit: at the top dose activity change, negative = inhibition, actives largely listed as inhibitors | actives 0.039% (n = 390,000) | Transcreener GDP fluorescence polarization, RGS4-accelerated GTP hydrolysis | P49798; also: % is scaled to controls: 0 for no effect and ±100 for the full control effect; nearly all actives have a fitted effect of over 75% in size; some results filed as inactive show a strong effect at the top dose
Target sequence (P49798 whole entry, looked up): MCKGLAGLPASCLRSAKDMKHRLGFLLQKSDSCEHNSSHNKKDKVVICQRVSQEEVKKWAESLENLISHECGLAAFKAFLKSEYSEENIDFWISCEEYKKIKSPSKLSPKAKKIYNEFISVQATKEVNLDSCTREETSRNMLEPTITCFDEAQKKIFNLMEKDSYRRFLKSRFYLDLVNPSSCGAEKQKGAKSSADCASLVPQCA
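MLSMR compounds (23 nl, pin-transferred) preincubated 10 min at room temperature with a 500nM (2x) first reagent, then RGS4 at 900nM (2x) plus Transcreener GDP mix added; fluorescence polarization (620/688 nm) read before and after 90 min at 30 °C.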
ERG Ets-DNA blk: blocks human ERG Ets domain binding to DNA; P11308; fluorescence polarization, His-ERG Ets domain / labelled DNA; Potency, µM (top dose mostly 76.9 µM), for inactives: at the top dose FP activity, negative = inhibition, hits mostly inhibitors; actives 0.028% (n = 370,000); AID 624246; active = well fitted inhibition curve with a large enough effect in the polarisation, with a control signal flat; inconclusive = small, poorly fitted or top-dose-only effect, or effect the other way, or a change in a side signal; inactive = no such curve, though single readings can be large or run the other way; the % refers to the polarisation;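 also: polarization taken with two DNA probes labelled with fluorescein and Texas red; % of control where 0% means no effect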
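His-tagged ERG Ets domain (1 uM in the protein solution; 300mM KCl, 50mM Tris-HCl, 1mM EDTA, 1mM DTT, pH 7.5) received compound, then a probe mix of 5 nM fluorescein-DNA and 100nM Texas-615-DNA. Fluorescence polarization was read for both dyes.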
GLS inh: inhibitors of human glutaminase (GLS). GLS enzymatic activity, qHTS titration. O94925. Potency, µM (series often up to 45.5 µM), inactives show at the highest dose activity change, negative = inhibition, most hits filed as inhibitors. actives 0.21% (n = 410,000). AID 624170; also: % is scaled to controls: 0 for no effect and ±100 for the full control effect
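Human kidney-isoform GLS in 45 mM KH2PO4 pH 8.2, 0.02% Tween-20, with compound, started with 1mM L-Glutamine (added stock). Glutamate oxidase/HRP/Amplex red coupled fluorescence read at start and after 30 min at RT.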
* hit, by the source's call; & = joins results of further samples; [ ] = dose if it differs, or a comment. Unless noted, calls follow the shape of the dose curve; as a rule, active = well fitted curve in the direction sought with a large enough effect; inconclusive = small, poorly fitted or top-dose-only effect, or another doubt; inactive = no such curve, though single readings can be large; an effect the other way counts as inactive or inconclusive. Potency is read from the fitted curve at half-maximal effect. This is a subset. The share of hits here may be higher or lower than overall.

Screening CCOC(=O)C1CCN(Cc2cn[nH]c2-c2ccc(C)cc2)CC1 returned 12-LOX inh 0%, rTrxR1 inhibitor -8%, PGK inhibitor -7%, Pin1 inh 1%, RGS4 inhibitor 13%, ERG Ets-DNA blk -4% and GLS inh -2%.
Cn1c(CCNC(=O)c2ccccc2F)nnc1SCC(=O)Nc1nncs1 was read as 12-LOX inh -9%, rTrxR1 inhibitor 18%[57.1 µM], PGK inhibitor -5%, Pin1 inh -4%, RGS4 inhibitor 10%, ERG Ets-DNA blk 7% and GLS inh 5%.
For CS(=O)(=O)N(CC(=O)Nc1cc(Cl)ccc1Cl)c1ccccc1Cl the results were 12-LOX inh -12%, rTrxR1 inhibitor 17%[57.1 µM], PGK inhibitor inactive, Pin1 inh inconclusive, RGS4 inhibitor 44%, ERG Ets-DNA blk 5% and GLS inh 10%.
Screening Cc1sc2ncn(CC(=O)NCCCC(=O)N3CCN(c4ncccn4)CC3)c(=O)c2c1C returned 12-LOX inh 0%, rTrxR1 inhibitor -1%, PGK inhibitor -3%, Pin1 inh -8%, RGS4 inhibitor 7%, ERG Ets-DNA blk 13% and GLS inh -2%.
`CCC(C)c1ccccc1NC(=O)C(C)NCCN(C)C` (stereo unspecified) gave 12-LOX inh -1%, rTrxR1 inhibitor -4%, PGK inhibitor -10%, Pin1 inh 0%, RGS4 inhibitor 14%, ERG Ets-DNA blk -1% and GLS inh 2%.
`COc1ccc(C(=O)NC(=S)NNC(=O)c2cnccn2)cc1` gave 12-LOX inh -11%, rTrxR1 inhibitor inconclusive, PGK inhibitor -4%, Pin1 inh -2%, RGS4 inhibitor -37%, ERG Ets-DNA blk 7% and GLS inh 20%.
Screening O=[N+]([O-])c1ccc(CNC2CCCc3ccccc32)cc1 (stereo unspecified) returned 12-LOX inh inconclusive, rTrxR1 inhibitor 9%, PGK inhibitor -1%, Pin1 inh -2%, RGS4 inhibitor -6%, ERG Ets-DNA blk -25% and GLS inh -1%.
For COC(=O)c1ccc(CSc2nc3ccc(C)cc3[nH]2)o1 the results were 12-LOX inh -4%, rTrxR1 inhibitor 14%[57.1 µM], PGK inhibitor 1%, Pin1 inh -4%, RGS4 inhibitor -35%, ERG Ets-DNA blk 9% and GLS inh 3%.
CCOC(=O)C1CCCN(Cc2ccccc2Cl)C1 (stereo unspecified) was read as 12-LOX inh inconclusive, rTrxR1 inhibitor 10%, Pin1 inh 3%, RGS4 inhibitor -3% and GLS inh 7%.
`Nc1nc(CN2CCN(c3ccccc3F)CC2)nc(Nc2ccc3c(c2)OCCO3)n1` gave 12-LOX inh 8%, rTrxR1 inhibitor -12%, PGK inhibitor 6%, Pin1 inh 3%, RGS4 inhibitor 5%, ERG Ets-DNA blk 3% and GLS inh 7%.
O=C(O)c1ccc(CSc2ncn[nH]2)cc1 was read as 12-LOX inh -11%[57.4 µM], rTrxR1 inhibitor 16%[57.1 µM], Pin1 inh -4%, RGS4 inhibitor 7% and GLS inh 1%.
For Cn1c(-c2ccc(F)cc2)cnc1NCc1ccc(C#N)cc1 the results were 12-LOX inh inconclusive, rTrxR1 inhibitor -3%, PGK inhibitor -2%, Pin1 inh -4%, RGS4 inhibitor 24%, ERG Ets-DNA blk -3% and GLS inh 32%[activator].
COCCNC(=O)C(=O)NNC(=O)c1ccccc1OC was read as 12-LOX inh -1%, rTrxR1 inhibitor 2%[57.1 µM], PGK inhibitor 3%, Pin1 inh 0%, RGS4 inhibitor 30%, ERG Ets-DNA blk 11% and GLS inh 0%.
c1ccc2[nH]c(NC3=NCCC3)nc2c1 was read as 12-LOX inh 0%, rTrxR1 inhibitor 6%, PGK inhibitor -4%, Pin1 inh -7%, RGS4 inhibitor -21%, ERG Ets-DNA blk 2% and GLS inh -6%.
For O=C(NNC(=S)Nc1ccc(Cl)cc1Cl)c1ccc(N2CCOCC2)c([N+](=O)[O-])c1 the results were 12-LOX inh inconclusive, rTrxR1 inhibitor -20%, PGK inhibitor -8%, Pin1 inh 1%, RGS4 inhibitor -42% and GLS inh 23%.
For COc1cccc2cc(C(=O)CS(=O)(=O)c3ccc(C)cc3)c(=O)oc12 the results were rTrxR1 inhibitor inconclusive, PGK inhibitor -2%, Pin1 inh -1%, RGS4 inhibitor -47%, ERG Ets-DNA blk 2% and GLS inh 2%.
Screening CCOC(=O)[C@@H](C)N(C(=O)OC(C)(C)C)S(=O)(=O)N(Cc1ccccc1)[C@H](C(=O)OC)C(C)C returned 12-LOX inh 20%, rTrxR1 inhibitor 34%&11%, PGK inhibitor 6%, Pin1 inh -1%, RGS4 inhibitor 1%, ERG Ets-DNA blk -2% and GLS inh -4%.
For CCCCc1c(O)nc2sc3cc(OC)ccc3n2c1=O the results were 12-LOX inh 22%, rTrxR1 inhibitor 7%[57.1 µM], PGK inhibitor 5%, Pin1 inh 2%, RGS4 inhibitor 49%, ERG Ets-DNA blk -6% and GLS inh 27%.
CCN(c1ccc(NC(=O)COC(=O)CCC(=O)c2ccc(F)cc2)cc1)C(C)C was read as 12-LOX inh 1%, rTrxR1 inhibitor 10%, PGK inhibitor 3%, Pin1 inh inconclusive, RGS4 inhibitor -26%, ERG Ets-DNA blk 4% and GLS inh 70%[activator].
`Cc1cc(C(C)(C)C)ccc1OCCOCCN1CCCC1` gave 12-LOX inh inconclusive, rTrxR1 inhibitor 6%[57.1 µM], PGK inhibitor -6%, Pin1 inh 3%, RGS4 inhibitor -2%, ERG Ets-DNA blk -20% and GLS inh 29%.
C/C(=N/NC(=O)c1ccccn1)c1ccco1 was read as 12-LOX inh 4%, rTrxR1 inhibitor 14%[57.1 µM], Pin1 inh -1%, RGS4 inhibitor 2% and GLS inh 0%.
`CCOC(=O)/C(=N/O)C1=NC(C)(C)Cc2cc(C)c(C)cc21` gave 12-LOX inh 9%, rTrxR1 inhibitor 9%[57.1 µM], PGK inhibitor -5%, Pin1 inh 3%, RGS4 inhibitor -7%, ERG Ets-DNA blk 6% and GLS inh 0%.
For CCCCCc1ccc(-c2ccc(=O)[nH]n2)cc1 the results were 12-LOX inh 0%[57.4 µM], rTrxR1 inhibitor 19%, PGK inhibitor 1%, Pin1 inh inconclusive, RGS4 inhibitor -37%, ERG Ets-DNA blk -2% and GLS inh 5%.
Screening COc1cc(C(=O)NC(=S)Nc2ccccc2N2CCCC2)cc(OC)c1OC returned 12-LOX inh inconclusive, rTrxR1 inhibitor 13%, PGK inhibitor 1%, Pin1 inh 11%, RGS4 inhibitor -57%[56.9 µM], ERG Ets-DNA blk 9% and GLS inh 1%.
Screening COc1ccccc1/C=C/C(=O)OCC(=O)Nc1nnc(-c2ccccc2)o1 returned 12-LOX inh -25%, rTrxR1 inhibitor -12%, PGK inhibitor -1%, Pin1 inh -2%, RGS4 inhibitor -10%, ERG Ets-DNA blk -6% and GLS inh 2%.
`CC1CN(C2CCN(S(=O)(=O)c3ccccc3)CC2)CC(C)O1` (stereo unspecified) gave 12-LOX inh inconclusive, rTrxR1 inhibitor -14%, PGK inhibitor -8%, Pin1 inh 0%, RGS4 inhibitor 16%, ERG Ets-DNA blk -1% and GLS inh 9%.
For CC(=O)c1cn(Cc2ccccc2)c(=O)n(Cc2ccc(F)cc2)c1=O the results were 12-LOX inh 0%, rTrxR1 inhibitor 16%, PGK inhibitor -10%, Pin1 inh 4%, RGS4 inhibitor inconclusive, ERG Ets-DNA blk -15% and GLS inh -11%.
Cc1cccc(C)c1NC(=O)Cn1nc(-c2ccccc2)nc1-c1ccccc1 was read as 12-LOX inh -6%, rTrxR1 inhibitor 5%[57.1 µM], PGK inhibitor 4%, Pin1 inh 3%, RGS4 inhibitor 22%, ERG Ets-DNA blk -2% and GLS inh 1%.
Screening CCN(CC)C(=O)C1CCCN(Cc2ccccc2F)C1 (stereo unspecified) returned 12-LOX inh 0%, rTrxR1 inhibitor 17%[0.457 µM], PGK inhibitor -3%, Pin1 inh -4%, RGS4 inhibitor 8%, ERG Ets-DNA blk 1% and GLS inh -3%.
For COC(=O)c1ccc2c(c1)N(Cc1nc(-c3ccc(Cl)cc3)oc1C)C(=O)C1CCCN21 (stereo unspecified) the results were 12-LOX inh inconclusive, rTrxR1 inhibitor -17%, PGK inhibitor 0%, Pin1 inh 50%[activator], RGS4 inhibitor -23%, ERG Ets-DNA blk 4% and GLS inh 3%.
`COC(=O)c1ccc(NC(=O)CSc2ccc(-c3ccccn3)nn2)cc1` gave 12-LOX inh 5%, rTrxR1 inhibitor -13%, PGK inhibitor -2%, Pin1 inh 2%, RGS4 inhibitor 7%, ERG Ets-DNA blk -13% and GLS inh 0%.
For Cc1cc(NC(=O)CN2CCN(C)CC2)no1 the results were 12-LOX inh 0%, rTrxR1 inhibitor 7%, PGK inhibitor inactive, Pin1 inh -2%, RGS4 inhibitor -79%[56.9 µM], ERG Ets-DNA blk 0% and GLS inh inconclusive.
CC1CN(CCCCOc2ccc(C(C)C)cc2)CC(C)O1 (stereo unspecified) was read as 12-LOX inh inconclusive, rTrxR1 inhibitor 7%, PGK inhibitor -4%, Pin1 inh -13%, RGS4 inhibitor -11%, ERG Ets-DNA blk 4% and GLS inh 8%.
Screening CCCCn1c(=O)[nH]c(=O)c2c1nc(CN(C)Cc1cccc(OC)c1OC)n2CCC returned 12-LOX inh 15%, rTrxR1 inhibitor 10%, PGK inhibitor inactive, Pin1 inh -7%, RGS4 inhibitor -15%, ERG Ets-DNA blk 6% and GLS inh -19%.
Screening COCCn1nnnc1C(c1ccccn1)N1CCN(c2cc(C)ccc2C)CC1 (stereo unspecified) returned 12-LOX inh -21%, rTrxR1 inhibitor 24%[57.1 µM], Pin1 inh -3%, RGS4 inhibitor 21% and GLS inh 28%.
COc1cc(NC(=O)CN2CCN(Cc3ccc4c(c3)OCO4)CC2)cc(OC)c1 was read as 12-LOX inh inconclusive, rTrxR1 inhibitor -6%, PGK inhibitor inactive, Pin1 inh -10%, RGS4 inhibitor -5%, ERG Ets-DNA blk 12% and GLS inh 0%.
